MenB inh = blocks the Mycobacterium tuberculosis MenB enzyme. hit rate 0.43% among 100,000. MenB enzyme assay, absorbance read-out; some hits fall short of the stated cut. inhibition, %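 (about 12 µg/mL by stock and volumes)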;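 active means mean of two replicates above 30%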;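 further: 0% = no compound and 100% = wells with inactive enzyme; the first replicate is given; strong numbers were not always called active; inactives centre near -10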
Target sequence (P9WNP5 whole entry, looked up): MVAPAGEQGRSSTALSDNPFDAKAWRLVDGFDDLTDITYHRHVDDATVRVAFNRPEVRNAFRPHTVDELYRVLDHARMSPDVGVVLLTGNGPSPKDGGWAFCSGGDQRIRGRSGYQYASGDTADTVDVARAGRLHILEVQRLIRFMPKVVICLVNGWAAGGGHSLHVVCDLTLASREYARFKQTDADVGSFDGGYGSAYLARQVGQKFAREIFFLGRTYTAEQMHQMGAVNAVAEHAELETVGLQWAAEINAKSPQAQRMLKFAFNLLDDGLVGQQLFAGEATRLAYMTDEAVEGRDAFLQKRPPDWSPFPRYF
MbtI inh = inhibitors of Mycobacterium tuberculosis siderophore enzyme MbtI; P9WFX0; purified MbtI enzyme, fluorescence intensity read-out; inhibition, %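 (about 17 µg/mL by stock and volumes)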; hit rate 0.89% among 100,000;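 active means above 50% in both replicates, above 80% if mildly self-fluorescent; inactive means the rest, strongly fluorescent compounds included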;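 further: 0% = mean of negative and 100% = mean of positive controls; one replicate is shown; some compounds called inactive have numbers as strong as hits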
Target sequence (P9WFX0 whole entry, looked up): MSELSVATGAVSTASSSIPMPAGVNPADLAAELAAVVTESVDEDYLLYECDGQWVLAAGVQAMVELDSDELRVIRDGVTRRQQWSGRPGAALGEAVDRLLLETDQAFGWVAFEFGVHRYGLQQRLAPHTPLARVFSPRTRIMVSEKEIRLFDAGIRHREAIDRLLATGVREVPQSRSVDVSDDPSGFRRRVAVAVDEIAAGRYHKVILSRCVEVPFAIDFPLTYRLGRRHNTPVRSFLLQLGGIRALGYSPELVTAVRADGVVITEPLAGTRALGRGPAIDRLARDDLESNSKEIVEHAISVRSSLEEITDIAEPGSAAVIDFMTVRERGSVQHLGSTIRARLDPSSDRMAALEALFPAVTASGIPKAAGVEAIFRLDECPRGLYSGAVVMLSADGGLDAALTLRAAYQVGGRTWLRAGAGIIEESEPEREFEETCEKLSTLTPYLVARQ
PV pol inh = inhibitors of poliovirus RNA polymerase binding and polymerization; hit rate 0.66% among 150,000; AID 588519; poliovirus polymerase elongation, fluorescence polarization; stronger effect = lower value; % elongation, % (compound at 16.7 µg/mL); in the data active means % elongation below about 90%; further: some results filed as inactive read as strong as hits
PV pol inh intensity = second read-out of PV pol inh, no call of its own (marks repeat the call); % elongation; measured here: total intensity read-out; formula for this scale not given here;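 total fluorescence in place of polarization; lower means less elongation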
Starred values were filed as active, the others as inactive; / = not tested or not shown. These rows are one share of the data (hit frequency here may not be typical).

The opening 17 compounds as a preview:
no.	Molecule	MenB inh	MbtI inh	PV pol inh	PV pol inh intensity
1	CCC(Oc1ccc(C(C)(C)CC)c(C)c1)C(=O)O (stereo unspecified)	/	-11.2	/	/
2	COC(=O)CC(N)c1ccc(Cl)cc1 (stereo unspecified)	/	-6.8	/	/
3	O=C(NCCCN1CCCCC1)c1ccc2c(=O)n3c(nc2c1)CCCCC3	/	22.0	/	/
4	Cc1cc(=O)[nH]c(Sc2c(C)c3cc4c(cc3[nH]c2=O)OCO4)n1	/	-74.3	/	/
5	CC1CCCC(C)N1C(=O)c1csc2c1CCCC2 (stereo unspecified)	/	-1.7	/	/
6	COC(=O)c1ccccc1S(=O)(=O)NCC#N	/	-9.0	/	/
7	O=C1CCCN1CC1CCCNC1 (stereo unspecified)	/	-12.2	/	/
8	CCN/C(C)=C/c1nsc(Nc2ccc(Cl)c(Cl)c2)n1	/	-7.2	/	/
9	Cc1ccc(NC(C(N)=O)c2c(C)[nH]c(=O)[nH]c2=O)cc1 (stereo unspecified)	/	-5.8	/	/
10	Cc1nn(Cc2ccccc2)c(C)c1C(=O)NS(=O)(=O)c1ccccc1Cl	/	-0.4	/	/
11	Cn1c(=O)c2sccc2n2c(CCCC(=O)NCc3ccc4c(c3)OCO4)nnc12	/	-19.9	/	/
12	CC1CCCC(NC(=O)CNC(=O)c2cccs2)C1C (stereo unspecified)	/	-1.9	/	/
13	O=C(CCC(=O)c1ccc(F)cc1)Nc1cccnc1	/	-17.1	/	/
14	CCOC(=O)N1CCN(C(=O)C(C)C)CC1	/	-9.9	/	/
15	CC(=O)OC(Cn1cccn1)c1ccccc1 (stereo unspecified)	/	0.1	/	/
16	CC(=O)OCCOc1nc(N(C)C)nc(N(C)C)n1	/	-6.5	/	/
17	Cc1nc(NC(C)C(=O)O)c2nc(C)oc2n1 (stereo unspecified)	/	-2.7	/	/

Main list, repeating the preview:
no.	Molecule	MenB inh	MbtI inh	PV pol inh	PV pol inh intensity
1	CCC(Oc1ccc(C(C)(C)CC)c(C)c1)C(=O)O (stereo unspecified)	/	-11.2	/	/
2	COC(=O)CC(N)c1ccc(Cl)cc1 (stereo unspecified)	/	-6.8	/	/
3	O=C(NCCCN1CCCCC1)c1ccc2c(=O)n3c(nc2c1)CCCCC3	/	22.0	/	/
4	Cc1cc(=O)[nH]c(Sc2c(C)c3cc4c(cc3[nH]c2=O)OCO4)n1	/	-74.3	/	/
5	CC1CCCC(C)N1C(=O)c1csc2c1CCCC2 (stereo unspecified)	/	-1.7	/	/
6	COC(=O)c1ccccc1S(=O)(=O)NCC#N	/	-9.0	/	/
7	O=C1CCCN1CC1CCCNC1 (stereo unspecified)	/	-12.2	/	/
8	CCN/C(C)=C/c1nsc(Nc2ccc(Cl)c(Cl)c2)n1	/	-7.2	/	/
9	Cc1ccc(NC(C(N)=O)c2c(C)[nH]c(=O)[nH]c2=O)cc1 (stereo unspecified)	/	-5.8	/	/
10	Cc1nn(Cc2ccccc2)c(C)c1C(=O)NS(=O)(=O)c1ccccc1Cl	/	-0.4	/	/
11	Cn1c(=O)c2sccc2n2c(CCCC(=O)NCc3ccc4c(c3)OCO4)nnc12	/	-19.9	/	/
12	CC1CCCC(NC(=O)CNC(=O)c2cccs2)C1C (stereo unspecified)	/	-1.9	/	/
13	O=C(CCC(=O)c1ccc(F)cc1)Nc1cccnc1	/	-17.1	/	/
14	CCOC(=O)N1CCN(C(=O)C(C)C)CC1	/	-9.9	/	/
15	CC(=O)OC(Cn1cccn1)c1ccccc1 (stereo unspecified)	/	0.1	/	/
16	CC(=O)OCCOc1nc(N(C)C)nc(N(C)C)n1	/	-6.5	/	/
17	Cc1nc(NC(C)C(=O)O)c2nc(C)oc2n1 (stereo unspecified)	/	-2.7	/	/
18	CC(C)CCSc1nc2ncn(C)c2c(=O)[nH]1	/	10.4	/	/
19	COc1ccc(N(C)C(=O)c2cnc(N3CCN(c4ncccn4)CC3)c3ccccc23)cc1	/	44.5	/	/
20	CN1Cc2cccc(C(=O)O)c2C1=O	/	-5.8	/	/
21	Cc1cccc(C)c1OCCCN1CCCCC1	/	-4.2	/	/
22	COc1ccc2cc3c(NCc4ccc(F)c(F)c4)n[nH]c3nc2c1	/	-17.1	/	/
23	COc1ccc(C2C(C#N)=C(N)OC3=C2CCCC3)cc1 (stereo unspecified)	/	4.7	/	/
24	O=c1oc2ccccc2cc1NCc1ccccc1O	/	-7.1	/	/
25	CCOC(=O)Cn1c(=O)n(CC(=O)OCC)c2ccccc21	/	-6.7	/	/
26	CCOc1ccc(CC(=O)NCc2cn(C)nc2C)cc1OCC	/	-16.9	/	/
27	NC(=O)C(Cc1ccccc1)NC(=O)c1ccccc1SCc1ccc(F)cc1 (stereo unspecified)	/	-1.9	/	/
28	CCn1c(Sc2c(C)c3cc4c(cc3[nH]c2=O)OCO4)nnc1-c1ccccc1	/	-14.6	/	/
29	COc1ccc(NC(=O)C2(N(Cc3ccccc3)C(=O)Cn3nnnc3N)CCCCC2)cc1	/	1.3	/	/
30	O=S1(=O)CC(O)C(NCCc2ccccc2)C1 (stereo unspecified)	/	-9.1	/	/
31	CC(Oc1ccccc1)C(=O)N1CCCCCC1 (stereo unspecified)	/	-18.0	/	/
32	CCC(=O)c1c[nH]c2ccccc12	/	5.5	/	/
33	COc1cccc(CNCc2ccccc2OC)c1	/	-5.2	/	/
34	O=C(O)CCCCc1nc2ccccc2[nH]1	/	-11.8	/	/
35	COc1ccc(CNc2ccc3nc4ccc(C)cc4c(=O)n3n2)cc1	/	-16.4	/	/
36	O=C(O)c1ccc2c(c1)ncn2C1CCCC1	/	-5.8	/	/
37	COC(=O)c1cc(=O)c2ccc(OC)cc2o1	/	-16.8	/	/
38	CC(/C(N)=N/O)N1CCCC1=O (stereo unspecified)	/	-1.8	/	/
39	Cc1ccc(CS(=O)(=O)CCC(=O)NCc2ccc3c(c2)OCO3)cc1	/	-15.9	/	/
40	O=C(O)c1cccc(-c2cccc(C(=O)O)c2)c1	/	-6.7	/	/
41	CCN1CCCC(OC(=O)NC2CCCCC2)C1 (stereo unspecified)	/	-17.8	/	/
42	Cc1cc(C)n(CC(=O)O)n1	/	-1.0	/	/
43	CC1=Nc2ccccc2N=C(NC(=O)c2ccccc2)C1c1ccccc1 (stereo unspecified)	/	1.0	/	/
44	Cc1ccc(CN2CC34C=CC(O3)C(C(=O)NCCc3ccc(Cl)cc3)C4C2=O)cc1 (stereo unspecified)	/	-7.3	/	/
45	COC(=O)COc1ccc(CSc2nc3ccccc3c(=O)n2C)cc1	-9.3	/	/	/
46	Cc1ccc(S(=O)(=O)c2c(N)n(NC(=O)C3CC3)c3nc4ccccc4nc23)cc1	-25.9	/	/	/
47	CCOC(=O)C1(C(=O)OCC)CCN(S(=O)(=O)c2ccc(C)cc2)c2ccccc2C1=O	5.4	/	/	/
48	CC(C)CNC(=O)c1c(N)n(/N=C/c2ccncc2)c2nc3ccccc3nc12	-19.9	/	/	/
49	CCc1ccc(Cn2c(CNS(=O)(=O)c3ccc(C)c(C)c3)nc3cccnc32)cc1	/	/	110.0	116.0
50	O=C(NC1CCCC1)c1ccc2c(c1)N(Cc1c(F)cccc1Cl)C(=O)c1ccccc1S2	/	/	112.0	108.0

Next section.
no.	Molecule	MenB inh	MbtI inh	PV pol inh	PV pol inh intensity
51	COc1ccc(C2c3cccn3CCN2S(=O)(=O)c2ccccc2[N+](=O)[O-])cc1OC (stereo unspecified)	/	/	107.0	99.0
52	Cc1ccc2c(=O)cc(C(=O)Nc3c(C(=O)c4ccccc4)oc4ccccc34)oc2c1	/	/	113.0	111.0
53	CCC(C(=O)N1CCN(c2cc(Cl)ccc2C)CC1)n1nc(C)n2c(cc3occc32)c1=O (stereo unspecified)	/	/	109.0	101.0
54	Cc1cccc(N2CCN(C(=O)C3CCN(S(=O)(=O)c4cccs4)CC3)CC2)c1C	/	/	102.0	105.0
55	CCOc1ccc(NC(=O)Cn2c(=O)n(Cc3ccccc3)c(=O)c3sc4ccccc4c32)cc1	/	/	104.0	102.0
56	COc1ccccc1Oc1nc2c(C)cccn2c(=O)c1/C=C(\C#N)c1nc2ccccc2[nH]1	/	/	105.0	125.0
57	CCc1ccc(-c2cc(C)no2)cc1S(=O)(=O)Nc1ccc(Cl)cc1	/	/	110.0	113.0
58	CCc1ccc(-n2c(=O)c3c4c(sc3n(Cc3cc(=O)n5c(C)cccc5n3)c2=O)CCC4)cc1	/	/	102.0	99.0
59	CCCCN(CCCNC(=O)c1cc(Nc2ccc(OC)cc2)nc2ccccc12)Cc1ccccc1	/	/	111.0	112.0
60	Cc1nn(CCCC(=O)NCCc2ccc(Cl)cc2)c(=O)c2nn(-c3ccccc3)c(C)c12	/	/	107.0	116.0
61	Cc1ccccc1Nc1c(-c2cccc(N(C)C)c2)nc2ccc(Br)cn12	/	/	111.0	112.0
62	CCOC(=O)COc1ccc(CC)cc1C(=O)c1ccn2nc(-c3ccccc3)cc2n1	/	/	104.0	110.0
63	Cc1nc2ccn(Cc3cccs3)c(=O)c2cc1C(=O)N1CCN(c2ccc(F)cc2)CC1	/	/	113.0	102.0
64	COc1ccc(-c2nc3scc(CCNS(=O)(=O)c4c(C)noc4C)n3n2)cc1OC	/	/	104.0	99.0
65	Cc1ccc(Cn2c(CN3CCC(C(=O)NCCc4ccccc4)CC3)cc3ccccc32)cc1	/	/	111.0	106.0
66	CCCCc1nc2ccccc2n1CC(=O)N(COCC)c1c(C)cccc1CC	/	/	109.0	108.0
67	CCc1ccccc1N(C)C(=O)c1cnc(N2CCOCC2)c2ccccc12	/	/	107.0	116.0
68	CC1CCCN(S(=O)(=O)c2ccc(NC(=O)c3nc(SC(C)C)ncc3Cl)cc2)C1 (stereo unspecified)	/	/	104.0	106.0
69	COc1ccc(-c2cc(C(C)=O)c(C)n2CCC(=O)Nc2ccc(C(F)(F)F)cc2)cc1	/	/	104.0	104.0
70	COc1cccc(N2CCN(C(=O)c3cnn(-c4ccccc4Cl)c3C3CCN(C(=O)OC(C)(C)C)CC3)CC2)c1	/	/	111.0	94.0
71	CCOc1ccc(CC(=O)NC2CC(=O)N(c3cccc(F)c3)C2)cc1 (stereo unspecified)	/	/	110.0	114.0
72	COc1cc(OC)c(NC(=O)c2cnc(N3CCCC3)nc2C)cc1Cl	/	/	113.0	113.0
73	Cc1ccc(CNC(=O)C2CCN(Cc3nc(-c4ccccc4C)oc3C)CC2)cc1	/	/	109.0	110.0
74	CCCCN(CCCC)CCNC(=O)Cn1nc(C)n2c(cc3sccc32)c1=O	/	/	105.0	109.0
75	O=C(COCc1cc(-c2ccc3c(c2)OCO3)on1)Nc1cccc(O)c1	/	/	125.0	125.0
76	CCOC(=O)c1c(C)[nH]c(C)c1S(=O)(=O)N1CCC(C(=O)NCc2ccc(N(C)C)cc2)CC1	/	/	112.0	117.0
77	CCc1ccc(Oc2nc3c(C)cccn3c(=O)c2/C=C(\C#N)c2nc3ccccc3[nH]2)cc1	/	/	108.0	113.0
78	Cc1coc2c(C)c3oc(=O)c(CC(=O)N4CCCCC4)c(C)c3cc12	/	/	111.0	115.0
79	COc1ccccc1CNC(=O)c1oc2ccc3c(c2c1C)C(=O)CC(C)(C)O3	/	/	108.0	110.0
80	CCC(C)NC(=O)Cn1ncc2c(C)n(Cc3ccc(F)cc3)c(C)c2c1=O (stereo unspecified)	/	/	110.0	109.0
81	CCOc1ccc(CCNC(=O)Cn2nc(CC)n3c(cc4sccc43)c2=O)cc1	/	/	104.0	104.0
82	COc1cccc(CNC(=O)Cn2c(C)c3cnn(-c4ccccc4)c(=O)c3c2C)c1	/	/	108.0	107.0
83	Cc1cccc(N2CCN(C(c3ccc(F)cc3)c3nnc(-c4ccccc4)o3)CC2)c1C (stereo unspecified)	/	/	102.0	105.0
84	CCCOc1ccc(Nc2cc(C)nc(C)n2)cc1	/	/	112.0	102.0
85	CCN(c1ccc(OC)cc1)S(=O)(=O)c1ccc2[nH]c3c(c2c1)CCCCC3	/	/	107.0	110.0
86	CCc1ccccc1NC(=O)Cc1c(C(=O)O)[nH]c2ccc(Cl)cc12	/	/	104.0	107.0
87	CCN(CC)S(=O)(=O)c1ccc2c(c1)N(CC(=O)Nc1ccc(Cl)cc1)C(=O)C1CCCN21 (stereo unspecified)	/	/	132.0	181.0
88	CCOc1ccc(-c2cc3nc(C4CCN(C(=O)OC(C)(C)C)CC4)c(C(=O)Nc4ccc(C)cc4Cl)cn3n2)cc1	/	/	108.0	110.0
89	COc1ccc(-c2cc(C(=O)Nc3cccnc3Cl)no2)cc1OC	/	/	109.0	107.0
90	COc1ccc(N(Cc2cccs2)C(=O)c2ccc(OC)c(Cl)c2)cc1	/	/	105.0	106.0
91	Cc1nc(-c2ccc(C)c(S(=O)(=O)N3CCC(C(=O)Nc4ccc(Cl)cc4)CC3)c2)no1	/	/	106.0	101.0
92	COc1ccccc1-c1nc(SCC(=O)c2ccccc2)n[nH]1	/	/	108.0	109.0
93	Cc1ccccc1CCNC(=O)c1cc2cc(S(=O)(=O)N3CCCCC3)ccc2n1C	/	/	103.0	107.0

Screening data deposited in PubChem by ICCB-Longwood Screening Facility, Harvard Medical School.
